Bead autofluor: counter-screen for toxin protease inhibitors: compound fluorescence. compound autofluorescence counterscreen, microsphere flow cytometry; hits give high values. fluorescence intensity (concentration not given with the values). 360,000 tested, 3.1% active. AID 624483;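 active means at least 3 SD above the mean of all compounds, about 16000 in these data; inconclusive means too few beads counted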;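 further: 100 nL of 1 mM stock went into each well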
RN4220 kill: kills Staphylococcus aureus RN4220; S. aureus RN4220 growth, OD600, 16 h; inhibition, % (test concentration not listed); 330,000 tested, 0.33% active; AID 1259311;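 active means z-score of -3 or lower and OD600 up to 0.18 on both plates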;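 further: plate controls were untreated cells for no effect and reference antibiotic for full effect; stock transfer was 100 nL into about 80 µL; one replicate is shown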
PrP UTR inh: inhibition of PrP 5' UTR reporter expression; cell-based PrP 5' UTR mRNA reporter, plate reader; inhibition, % (concentration not given with the values); 340,000 tested, 0.35% active;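 active means every replicate at 50% or more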;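 further: 0 = median of the neutral control wells; tested in H4 reporter cells; numbers are from one replicate; inactives centre near -14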
ugtP null kill: growth inhibition of S. aureus ugtP deletion strain. S. aureus RN4220 ugtP deletion, OD600 growth, 16 h; some inactives read as strong as hits. AID 1259309. 330,000 tested, 0.54% active. growth inhibition, % (no concentration beside the values);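 active means z-score under -3 and OD600 up to 0.15 on both plates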;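 further: plate controls were untreated wells for no effect and antibiotic for full effect; wells of about 80 µL received 100 nL stock; the first replicate is given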
Mtb hypoxia rep: inhibitors of hypoxia-regulated fluorescent reporter in Mycobacterium tuberculosis; 300,000 tested, 0.1% active; fluorescence inhibition, % (concentration not given with the values); M. tuberculosis hypoxia-regulated fluorescent reporter, fluorescence;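 active means 35 to 45% if threefold the growth effect, above 45% if 1.5-fold the growth effect; inactive means the rest, general growth blockers included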;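 further: wells of about 50 µL received 100 nL stock; 0% = vehicle wells and 100% = reference inhibitor wells; whole bacteria with a GFP reporter of the hypoxia response; strong numbers were not always called active; many hits fall short of the cut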
BJeLR lethal: BJeLR cell viability loss. inhibition, % (test concentration not listed). 300,000 tested, 0.17% active. AID 1554. BJeLR (HRASV12) viability, CellTiter-Glo ATP luminescence, 48 h; reference of the scale not given here;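 active means replicate mean above 50%; inconclusive means above 50% but judged a plate artefact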;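 further: 50 nL library stock added to about 25 µL; numbers are from one replicate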
Mtb hypoxia rep growth: further read-out of Mtb hypoxia rep, marked with its call; growth inhibition, %; measured here: M. tuberculosis growth (absorbance);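 0% = vehicle and 100% = reference antibiotic; read after six days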
An asterisk follows results filed as active; ? = inconclusive; / = not tested or not shown. Random draw from the library, and some 4.1% of all compounds hit somewhere here.

SMILES	Bead autofluor	RN4220 kill	PrP UTR inh	ugtP null kill	Mtb hypoxia rep	Mtb hypoxia rep growth	BJeLR lethal
O=C(NC1CCC(O)CC1)c1ccc(-c2ccc([N+](=O)[O-])cc2)o1 (stereo unspecified)	5436	2.7	-8	1	12	15	11
CCOC(=O)c1sc(=S)n(-c2ccc(F)c(F)c2)c1N	21634*	3.5	-28	-7	12	3	-5
O=C(Nc1cccc(F)c1)c1cccc(S(=O)(=O)N2CCOCC2)c1	24090*	4.1	-8	-7	11	7	10
CCC(C(=O)NCCC(C)C)n1ccc2cc(S(=O)(=O)N3CCCCC3)ccc21 (stereo unspecified)	/	-2.5	-16	7	-6	-9	7
COc1ccccc1OCC(=O)Nc1cccc(-c2nnc(-c3ccco3)o2)c1	2008	37	-25	10	12	5	-1
O=S(=O)(c1ccccc1)N1N=C(c2cccs2)CC1c1ccc(Br)cc1 (stereo unspecified)	5340	-8.2	10	-6	-6	7	-16
Cc1nn(Cc2ccccc2)c(Cl)c1/C=C/C(=O)OCC(=O)N1CCCC1=O	4058	2.7	-13	-2	8	4	2
Cc1nn(-c2ccccc2)c(C)c1C(=O)Oc1ccccc1	4460	1.9	-68	-4	-3	10	1
COC(=O)c1ccccc1NC(=O)COC(=O)C1CCCCC1	3487	11	-15	7	9	7	-1
CCn1c(C)nc2cc(C(=O)N/N=C(\C)c3ccccc3O)ccc21	3197	/	-52	/	/	/	2
COc1cc(Cl)ccc1OCc1cc(C(=O)NC(C)Cc2cnccn2)no1 (stereo unspecified)	5456	1.0	-106	6	3	7	-2
Cc1ccccc1N(CC(=O)NCc1ccccc1)C(=O)CCC(=O)Nc1nccs1	3752	0.2	-29	4	14	-5	0
COc1ccc(-n2nc(C(=O)NCC(=O)N3CCN(Cc4ccc5c(c4)OCO5)CC3)c3ccccc3c2=O)cc1OC	4570	3.5	-11	-4	-2	5	4
CC1(C)Cc2c(ccc3ccccc23)/C(=C/C(=O)N2CCCCC2)N1	2489	2.3	1	30	/	/	-3
CCCCN(CC)c1nc(-c2ccncc2)nc2ccccc12	3339	-9.2	-20	-15	11	12	-1
CCOc1cc(CNC2CCCC2)ccc1OCc1ccccc1Cl	4435	/	1	/	/	/	-1
Nc1n[nH]c(S(=O)(=O)CCCc2ccccc2)n1	2420	1.7	2	7	/	/	2
CCC(=O)n1nc(NCc2ccc(OC)c(OC)c2)nc1NCc1ccc(OC)c(OC)c1	2794	-0.9	-15	1	/	/	-3
CCOC(=O)C(CC)Sc1ccc2nnc(-c3cccnc3)n2n1 (stereo unspecified)	3925	9.2	-12	3	11	10	5
Cc1ccc(-n2nc(C)c(C=NNC(=O)c3cccs3)c2Cl)cc1	/	0.0	/	3	5	5	/

A second format for some results above.
> Cc1nn(-c2ccccc2)c(C)c1C(=O)Oc1ccccc1
  Bead autofluor = 4460
  RN4220 kill = 1.9
  PrP UTR inh = -68
  ugtP null kill = -4
  Mtb hypoxia rep = -3
  Mtb hypoxia rep growth = 10
  BJeLR lethal = 1
> COC(=O)c1ccccc1NC(=O)COC(=O)C1CCCCC1
  Bead autofluor = 3487
  RN4220 kill = 11
  PrP UTR inh = -15
  ugtP null kill = 7
  Mtb hypoxia rep = 9
  Mtb hypoxia rep growth = 7
  BJeLR lethal = -1

(cont.)
SMILES	Bead autofluor	RN4220 kill	PrP UTR inh	ugtP null kill	Mtb hypoxia rep	Mtb hypoxia rep growth	BJeLR lethal
Cc1noc(NS(=O)(=O)c2ccc(NC(=O)CSc3n[nH]c(-c4ccccc4)n3)cc2)c1C	/	-1.4	-11	-6	14	3	-2
COc1ccccc1/C=C(/C(=O)OCC(=O)Nc1ccccc1C)c1ccccc1	2682	3.3	-1	0	5	0	2
COc1ccc(CNC(=O)Cn2ccc([N+](=O)[O-])n2)cc1OC	4085	2.9	-8	8	9	0	-4
O=C(CSCCNS(=O)(=O)c1ccccc1)Nc1ccccc1	4104	3.8	-14	3	/	/	9
O=C(CCc1n[nH]c(=O)[nH]c1=O)N/N=C/c1ccco1	1920	/	6	/	/	/	-5
COc1ccccc1C(=O)N1CCN(CCNC(=O)C(=O)Nc2ccc(Br)c(C)c2)CC1	5008	3.2	-26	2	2	3	7
COc1cccc(N2CCN(S(=O)(=O)c3c(C)[nH]c(C)c3C(=O)N3CCCCC3)CC2)c1	4394	-4.3	-4	-5	1	2	0
CC(C)c1nnc(NC(=O)c2c(O)c3cccc4c3n(c2=O)CCC4)s1	2329	46	-16	-5	9	8	-6
Cn1c(NC(=O)CCC2CCCCC2)cc(=O)n(C)c1=O	5844	3.0	-62	6	2	10	10
O=C(Nc1ccc(Oc2ccccc2)cc1)C1CCCO1 (stereo unspecified)	12671	0.9	-38	1	7	10	-3
COc1ccc(C(C)=O)cc1COC(=O)CCC(=O)N(CC(C)C)c1c(N)n(CC(C)C)c(=O)[nH]c1=O	?	-1.4	-23	-1	-11	-4	4
Cc1cc(N2CCN(C(=O)/C=C/C(=O)O)CC2)c2ccccc2n1	2974	2.5	-19	-1	8	7	4
COCCn1c(CN2CCN(C(=O)c3ccco3)CC2)nc2c1c(=O)n(C)c(=O)n2C	4412	-0.5	0	4	-2	-6	13
COCCCn1c(C)c(C(C)=O)cc(NC(=O)c2ccccc2)c1=O	4118	7.7	-12	-1	13	4	4
CCCc1[nH]n(-c2ccc([N+](=O)[O-])cc2)c(=O)c1C=NCCN1CCNCC1	/	1.8	/	10	5	0	7
COc1ccc(/C(C)=N/NC(=S)NCCc2ccccc2)cc1	4729	/	-2	/	/	/	-7
CC(=O)C(Cc1ccccc1)NC(=O)CCl (stereo unspecified)	3678	5.0	23	14	21	12	13
CN(C)c1ccc(C=NNC(=O)c2ccccc2)cc1	/	6.2	/	-7	-6	-1	/
O=S(=O)(NCc1ccccc1)c1ccc(NC(=S)NCc2ccco2)cc1	4634	6.7	-24	-5	5	0	-2
COc1ccc(C2c3c(oc4ccccc4c3=O)C(=O)N2CC2CCCO2)cc1 (stereo unspecified)	9632	8.9	-27	5	10	3	14
O=[N+]([O-])c1cc(S(=O)(=O)NCCc2ccccn2)ccc1Cl	4302	0.2	-7	3	1	-9	/
O=C(CN1CC=C(c2ccccc2)CC1)NC(=O)NCc1ccccc1	4308	31	-15	-9	0	0	-5
CCCCn1c(N)c(N(CC)C(=O)C2=COCCO2)c(=O)[nH]c1=O	?	0.9	-34	-1	0	-7	-8
CSc1ncccc1C(=O)OCC(=O)NC1CCC(C)CC1 (stereo unspecified)	?	2.8	-6	5	2	0	/
COc1cc(C2Nc3ccc4ncccc4c3C3=C2C(=O)CCC3)cc(OC)c1OC (stereo unspecified)	3181	/	-24	/	/	/	2
COc1cc(CNCCc2c[nH]c3ccccc23)cc(OC)c1	3205	-4.3	-28	10	15	5	6
CCc1cccc(C)c1NC(=O)C1CCCO1 (stereo unspecified)	3407	9.1	-10	9	9	12	1
CCCSc1ccc(C2N[C@@](Cc3ccccc3)(C(=O)OC)C3C(=O)N(C)C(=O)C23)cc1 (stereo partly specified)	/	2.0	/	2	7	3	/
O=C(NCc1ccccc1)N[C@@H](Cc1ccccc1)C(=O)O	16799*	-0.8	-16	6	4	2	-10
CCc1cc(=O)oc2cc(OC(C)C(=O)NCCCn3ccnc3)ccc12 (stereo unspecified)	4957	5.5	-4	1	9	7	4
COc1ccc([N+](=O)[O-])cc1NC(=O)COC(=O)c1ccc(O)cc1	4682	1.7	-13	-2	-3	-7	1
S=C(c1ccccc1)N(c1ccccc1)c1ccccc1	4318	-2.5	-1	-1	/	/	6
Cc1ccc(S(=O)(=O)N2C(=S)SCC2(C)C)cc1	/	-12	/	-2	1	5	-7
O=C(CCl)NCCNC(=O)c1cc(OCC(F)(F)F)ccc1OCC(F)(F)F	5166	0.8	-33	-2	/	/	2
CCn1cnc2cc(NCc3ccc(Cl)cc3)ccc21	3094	4.4	-73	2	4	-2	4
COc1ccc(N(CC(=O)Nc2cc(C)ccc2C)S(=O)(=O)c2c(C)[nH]c(=O)[nH]c2=O)cc1	4720	6.2	-31	11	-3	-3	0
O=C(N/N=C/c1ccco1)C1CC(=O)N(c2ccccc2)C1 (stereo unspecified)	2620	/	-25	/	/	/	-4
COc1ccc(CCNC(=O)COC(=O)c2ncc(Cl)c(Cl)c2Cl)cc1OC	3339	1.4	-29	1	8	19	/
Cc1ccc(S(=O)(=O)CC(=O)NC(C)(C)C)cc1	5477	3.9	-17	6	-1	9	-8
OCCN(CCO)CC(O)Cn1c2ccccc2c2ccccc21 (stereo unspecified)	9726	0.0	11	5	9	6	4
CCCOc1ccc(C(=O)NNC(=O)c2cccc(S(=O)(=O)N3CCN(C(C)=O)CC3)c2)cc1OC	5349	-0.2	-25	8	-5	0	-13
CCOCCCn1c(C)nc2c[n+](CC(=O)c3ccc4ccccc4c3)cc(Br)c21	6420	-1.6	/	-4	1	10	1
CCOC(=O)C1CCCN(CC(=O)Nc2c(C(=O)OC)[nH]c3ccccc23)C1 (stereo unspecified)	6557	3.6	-12	-2	12	3	0
O=C(NNC(=O)c1ccc2c(=O)n3c(nc2c1)CCC3)c1ccc(Cl)cc1	3251	5.3	-16	7	2	1	/
N#Cc1cc2ccccc2nc1SCC(=O)Nc1ccccc1N1CCOCC1	11422	5.8	-35	3	7	3	-24
C=CCn1c(SCC(O)Cn2c3ccccc3c3ccccc32)nnc1-c1ccco1 (stereo unspecified)	3024	2.8	-28	-26	0	4	2
CCCCNC(=O)c1nnn(-c2ccccc2)c1N	3945	1.8	-25	0	5	6	0
CN1C(=O)NC(=O)C(N=Nc2ccc(Cl)cc2)C1=O (stereo unspecified)	2890	0.6	-36	-8	3	-3	/
Cc1ccc2c(c1)oc(=O)n2CC(=O)c1ccccc1	3788	-0.9	-24	2	8	9	-8
COc1ccc(NC(=O)C(C)(C)Oc2ccc(Cl)cc2)cn1	3984	8.0	-8	1	10	3	/
O=C(Cn1cc(C(F)(F)F)ccc1=O)N/N=C/c1ccc(F)cc1	4375	/	-4	/	/	/	1
Cc1cc(C(=O)N/N=C/c2cccs2)n[nH]1	4427	/	-49	/	/	/	-1
CN=Cc1nc(-c2ccccc2)oc1O	3683	-2.5	-59	1	/	/	-2
COc1cc(C(=O)NCC(c2cccnc2)N2CCN(C)CC2)cc(OC)c1OC (stereo unspecified)	4174	2.3	-11	5	17	3	-5
CC(=O)NS(=O)(=O)c1ccc(N=c2ssc3c2-c2ccc(C)cc2NC3(C)C)cc1	2509	31	-2	11	9	3	0
O=S1(=O)CC(N2CCOCC2)c2ccccc21 (stereo unspecified)	2562	0.1	-5	1	/	/	-1
CC(=NNC(=O)CC1C(=O)NN=C1C)c1cccs1 (stereo unspecified)	/	3.9	/	6	0	-8	/
O=[N+]([O-])c1ccc(Cl)c(C2Nc3cccc4cccc(c34)N2)c1	5453	2.5	-11	-6	3	2	-3
CC(=O)Nc1ccc(S(=O)(=O)N(C#N)c2nc(C)cc(C)n2)cc1	4153	3.4	-20	-2	-3	13	-7
O=C(CCN1C(=O)/C(=C\c2ccccc2Cl)SC1=S)N1CCN(c2ccccc2)CC1	3233	-0.4	-16	-16	/	/	-2

Going on with the list.
SMILES	Bead autofluor	RN4220 kill	PrP UTR inh	ugtP null kill	Mtb hypoxia rep	Mtb hypoxia rep growth	BJeLR lethal
Cc1ccc(S(=O)(=O)N2CCOCC2)cc1C(=O)NCc1ccc2c(c1)OCO2	3609	5.9	-10	2	4	8	5
COc1ccccc1N(C)S(=O)(=O)c1ccc(C(=O)N(CC(N)=O)C(C)C)cc1	3314	4.0	-10	-6	5	7	-6
CCOC(=O)C1CCN(/C=C2/C(=O)NC(=O)N(c3ccc(OCC)cc3)C2=O)CC1	7657	6.2	-22	3	6	3	/
COc1ccc(S(=O)(=O)Nc2cc([N+](=O)[O-])ccc2OC)cc1	8408	11	-21	2	3	0	0
Cc1cc(C)c(NC(=O)C2CC(=O)N(Cc3ccccc3)C2)c(C)c1 (stereo unspecified)	3792	11	-20	11	6	-6	-18
O=C(COC(=O)Cn1cnc2ccccc21)Nc1ccc(F)c(F)c1	3535	3.7	-48	3	10	6	/

Ordered by count of non-hydrogen atoms (highest first): some entries from above
SMILES	Bead autofluor	RN4220 kill	PrP UTR inh	ugtP null kill	Mtb hypoxia rep	Mtb hypoxia rep growth	BJeLR lethal
CCOC(=O)C1CCN(/C=C2/C(=O)NC(=O)N(c3ccc(OCC)cc3)C2=O)CC1	7657	6.2	-22	3	6	3	/
COc1ccccc1N(C)S(=O)(=O)c1ccc(C(=O)N(CC(N)=O)C(C)C)cc1	3314	4.0	-10	-6	5	7	-6
COc1ccc(S(=O)(=O)Nc2cc([N+](=O)[O-])ccc2OC)cc1	8408	11	-21	2	3	0	0
